# Screens deposited in PubChem BioAssay by several laboratories.
# RGS16-Gao HTS: modulators of RGS16 binding to Galphao, primary screen, biochemical, human proteins, multiplexed bead flow cytometry; binding response (% of control), % at 10 µM; bead-based flow cytometry RGS16-Galphao binding, fluorescence; actives lie on both sides; hit rate 0.38% among 220,000; AID 1441, 2008;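 active = below 25% or above 175%, edge rows of some plates excepted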;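 note: Galphao activated by GDP with aluminum fluoride before binding; 100% = wells without compound and 0% = beads without RGS; some results beyond the cut were filed as inactive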
# Target sequence (O15492 whole entry, looked up): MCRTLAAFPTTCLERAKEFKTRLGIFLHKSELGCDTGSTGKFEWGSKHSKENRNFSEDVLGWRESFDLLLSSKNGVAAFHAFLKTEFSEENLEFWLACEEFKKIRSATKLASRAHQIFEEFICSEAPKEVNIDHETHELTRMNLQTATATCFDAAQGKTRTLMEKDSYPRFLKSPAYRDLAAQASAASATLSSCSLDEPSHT
# Target sequence (P09471 whole entry, looked up): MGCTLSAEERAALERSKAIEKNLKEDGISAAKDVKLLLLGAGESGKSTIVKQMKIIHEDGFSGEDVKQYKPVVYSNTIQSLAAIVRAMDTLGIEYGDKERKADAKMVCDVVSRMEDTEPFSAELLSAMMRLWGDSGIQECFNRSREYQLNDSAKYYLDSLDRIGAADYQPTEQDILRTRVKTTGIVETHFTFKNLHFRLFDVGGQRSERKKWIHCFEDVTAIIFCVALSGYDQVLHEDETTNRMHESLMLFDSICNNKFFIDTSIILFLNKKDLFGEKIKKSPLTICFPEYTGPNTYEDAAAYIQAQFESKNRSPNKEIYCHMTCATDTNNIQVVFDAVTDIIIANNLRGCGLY
# GALR2 ag: GALR2 receptor agonists, primary screen, cell-based; activation, %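 (tested at 5 µM)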; GALR2-expressing cells, agonist activation read-out; hit rate 0.48% among 140,000; AID 803, 2007; Galanin receptor type 2 (Homo sapiens), O43603;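 active = above mean plus 3 SD of all compounds, about 5% in these data, not always enough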;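 note: 0% = vehicle buffer wells and 100% = reference agonist at full effect; tested in CHO reporter cells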
# Target sequence (O43603 whole entry, looked up): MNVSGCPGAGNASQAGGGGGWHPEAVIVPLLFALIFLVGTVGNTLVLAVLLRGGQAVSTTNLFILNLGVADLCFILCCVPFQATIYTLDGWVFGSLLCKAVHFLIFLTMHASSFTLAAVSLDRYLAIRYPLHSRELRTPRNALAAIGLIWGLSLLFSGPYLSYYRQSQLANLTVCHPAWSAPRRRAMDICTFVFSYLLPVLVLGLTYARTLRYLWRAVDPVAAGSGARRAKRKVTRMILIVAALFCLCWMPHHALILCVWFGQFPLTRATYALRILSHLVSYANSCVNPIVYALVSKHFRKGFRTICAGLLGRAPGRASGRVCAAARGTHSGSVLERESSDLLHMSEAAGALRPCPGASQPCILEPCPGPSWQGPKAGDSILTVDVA
# PKD1 inh: inhibitors of human PKD1 kinase, biochemical, fluorescence polarization. Serine/threonine-protein kinase D1 (Homo sapiens), Q15139. inhibition, %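 (about 10 µM by stock and volumes)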. hit rate 0.056% among 200,000. PKD1 kinase fluorescence polarization assay;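 active = inhibition of 50% or more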;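 note: controls were vehicle for no effect and a reference inhibitor for full effect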
# Insulin prom inh: inhibitors of insulin promoter-driven GFP, primary screen, imaging, TRM-6 cells (human fetal islet line), eGFP reporter, cell count. hit rate 0.9% among 130,000. reporter expression induced with tamoxifen. inhibition, % at 2 µM;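 active = inhibition above the mean plus 3 SD, with well images judged a real hit on visual review, cut at about 60% in these data, passing the limit was not always enough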
# HSV replic up: enhancers of HSV replication in host cells, fold increase, host cell viability | HSV replication augmentation in cells | maximum fold increase | hit rate 0.005% among 220,000 | AID 1956, 2009;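 active = peak rise of 1.5-fold or more in the series; tested in PC3 cells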;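 note: first round at 10 µM; read as green reporter fluorescence; hits show the peak of a series up to 25 µM; 1 = signal of infected wells without compound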
# Insulin prom inh cell count: also measured in Insulin prom inh; calls as there; normalized cell count, %; measured here: cell count, toxicity; reference of the scale not given here;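 cells exposed to compound for 48 h; stained nuclei by imaging scaled within each plate; lower means fewer cells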
# HSV replic up primary fold: further read-out of HSV replic up, marked with its call; fold increase; compound at 10 µM; measured here: primary screen fold increase 10 uM; tested in PC3 cells;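 GFP signal in the first replicate; 1 = infected wells without compound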
# * marks the source's active call; other numbers are inactive results; i = inactive; nt = not tested or not shown.
SMILES,RGS16-Gao HTS,GALR2 ag,PKD1 inh,Insulin prom inh,Insulin prom inh cell count,HSV replic up,HSV replic up primary fold
Cc1[nH]c2ccccc2c1C(=O)COC(=O)CCS(=O)(=O)c1ccccc1Cl,102,0.6,-9,-24,147,i,0.81
COc1ccc(NC(=O)Nc2nnc(N3CCC(C)CC3)s2)cc1OC,110,0.3,5,50,119,nt,nt
O=C(/C(=C/O)N=Nc1ccccc1)c1ccc(Cl)cc1,102,nt,0,6,58,i,0.92
Cc1ccc2cc(CN(CCO)Cc3nnnn3Cc3ccc(F)cc3)c(=O)[nH]c2c1,93,0.4,-11,-140,126,i,0.94
CCO[C@@H]1OC(C(=O)N2CCOCC2)=C[C@H](c2cn(C(C)=O)c3ccccc23)[C@H]1CCCO,102,nt,6,nt,nt,i,0.77
CN(C)c1nc(NS(=O)(=O)c2ccc(Cl)cc2)nc(N(C)C)n1,98,-2.9,5,nt,nt,i,0.72
O=C(Cn1c(=O)n(CC2CCCO2)c(=O)c2ccccc21)c1ccc(Cl)c(Cl)c1 (stereo not given),72,-0.2,-3,-100,133,i,0.78
Cc1ccc(NC(=O)N2CCN(c3ncccc3C(F)(F)F)CC2)cc1,92,nt,nt,nt,nt,i,0.93
CC(C)(C)[C@H]1C=C(C(=O)N2CCOCC2)O[C@@H](OCc2ccc(CO)cc2)C1,100,nt,10,nt,nt,i,0.95
CCCN(CCC)C(=O)Cn1c(=O)n(CCC(=O)NCCc2ccccc2)c(=O)c2ccccc21,108,-3.5,-2,32,16,i,0.95
Cc1ccc(CNC(=O)CSc2nc3c(sc4ccccc43)c(=O)n2CCCN2CCCC2)cc1,94,nt,-1,-14,66,i,0.61
COc1cccc(/C=N/n2c(-c3ccco3)nc3ccccc3c2=O)c1,103,0.1,2,-4,84,i,0.87
COc1cccc(NC(=S)NC2CC3CCCC(C2)N3CC(C)C)c1 (stereo not given),107,nt,2,nt,nt,i,1.1
COc1ccc(C2CC(C(F)(F)F)n3ncc(C(=O)Nc4cccc(O)c4)c3N2)cc1OC (stereo not given),120,0.8,-3,23,47,i,1
CN(CC(=O)Nc1cccnc1)S(=O)(=O)c1cc(Cl)ccc1Cl,104,-4.1,-10,36,83,i,0.96
O=[n+]1cc(-c2ccc(Cl)cc2)n([O-])c2c1CCC2,96,nt,nt,nt,nt,i,1.1
Cc1ccc(C(C(=O)NC2CCCCC2)N(C(=O)Cc2c[nH]c3ccccc23)c2ccccc2)o1 (stereo not given),93,-2.6,-2,-20,69,i,0.99
CCCC1(c2ccccc2)NC(=O)N(CC(=O)Nc2sc(-c3ccccc3)cc2C(=O)OCC)C1=O (stereo not given),112,-0.8,-3,-32,68,i,0.66
CCN(CC)S(=O)(=O)c1cccc(C(=O)Oc2cccc(NC(=O)c3cccs3)c2)c1,98,-1.1,-3,-77,89,nt,nt
CC(=O)N(Cc1cccnc1)Cc1cc2ccc(C)cc2[nH]c1=O,104,-1.6,-5,nt,nt,i,0.95

# Reprinted from the part before: seven compounds, followed by the next part.
SMILES,RGS16-Gao HTS,GALR2 ag,PKD1 inh,Insulin prom inh,Insulin prom inh cell count,HSV replic up,HSV replic up primary fold
COc1ccc(C2CC(C(F)(F)F)n3ncc(C(=O)Nc4cccc(O)c4)c3N2)cc1OC (stereo not given),120,0.8,-3,23,47,i,1
CN(CC(=O)Nc1cccnc1)S(=O)(=O)c1cc(Cl)ccc1Cl,104,-4.1,-10,36,83,i,0.96
O=[n+]1cc(-c2ccc(Cl)cc2)n([O-])c2c1CCC2,96,nt,nt,nt,nt,i,1.1
Cc1ccc(C(C(=O)NC2CCCCC2)N(C(=O)Cc2c[nH]c3ccccc23)c2ccccc2)o1 (stereo not given),93,-2.6,-2,-20,69,i,0.99
CCCC1(c2ccccc2)NC(=O)N(CC(=O)Nc2sc(-c3ccccc3)cc2C(=O)OCC)C1=O (stereo not given),112,-0.8,-3,-32,68,i,0.66
CCN(CC)S(=O)(=O)c1cccc(C(=O)Oc2cccc(NC(=O)c3cccs3)c2)c1,98,-1.1,-3,-77,89,nt,nt
CC(=O)N(Cc1cccnc1)Cc1cc2ccc(C)cc2[nH]c1=O,104,-1.6,-5,nt,nt,i,0.95
Cc1ccc2c(c1)c1c(n2CC(O)Cn2ccnc2C)C(=O)CCC1 (stereo not given),94,-0.3,-3,19,111,i,0.97
CC1CCc2c(sc(NC(=O)Cn3nc(C(F)(F)F)c4c3CCCCC4)c2C#N)C1 (stereo not given),95,-0.6,19,nt,nt,i,0.97
COc1cc(OC)cc(-c2cc3nc(C)cc(N4CCN(C(=O)c5ccco5)CC4)n3n2)c1,105,0.8,-1,10,130,nt,nt
Cc1n[nH]c(=S)n1/N=C/c1ccc(Br)o1,98,-0.6,-4,nt,nt,i,0.97
CC(C)c1ccc(OCC(=O)Nc2cccc3c2CCCC3)cc1,113,-1.3,0,10,72,i,1
O=C(CSc1nnc(-c2ccc(F)cc2)o1)Nc1ccccc1N1CCOCC1,nt,-1.6,-1,31,115,i,1
CC(=O)c1c(C(C)=O)c(C)n(-c2cccc([N+](=O)[O-])c2)c1C,101,-1.4,-2,-18,99,i,1
O=C(O)CCC(=O)Nc1ccccc1Oc1ccccc1,102,nt,-5,19,100,i,1
Cc1ccc(OCCn2cc(/C=C(\C#N)C(=O)NCC3CCCO3)c3ccccc32)cc1C (stereo not given),114,-0.9,0,nt,nt,i,0.92
CC(C)[C@H](NC(=O)NC1CCN(Cc2ccccc2)CC1)C(=O)O,108,nt,nt,nt,nt,i,0.94
CCOC(=O)CN(C(=O)CSc1nnc(CNc2ccc(F)cc2)n1CC)c1ccc(F)cc1,101,-1.6,1,-50,103,i,0.94
Cn1cc(CN2CC3C[C@@H]4CC2C[C@H](C3)C4)c(-c2ccc3c(c2)OCCO3)n1,140,nt,-4,nt,nt,i,1.1
CCN(CC)CCNC(=O)C(=O)NCC1OCCN1S(=O)(=O)c1ccc([N+](=O)[O-])cc1 (stereo not given),85,-2.5,-2,-50,177,i,0.97
COc1ccc(CNC(=O)C2CCC(CNc3c(N4CCOCC4)c(=O)c3=O)CC2)cc1 (stereo not given),104,-2.7,-9,nt,nt,i,0.99
O=S(=O)(c1ccc(NCC2CCCCC2)nc1)N1CCOCC1,99,-0.3,5,nt,nt,i,0.92
c1cncc(Nc2nc(-c3cccnc3)cs2)c1,95,-0.7,-2,53,152,i,0.98
S=C(Nc1ccccc1Cl)NC1CCCCCC1,108,nt,-1,12,83,i,0.96
O=C(CSc1ncnc2c1oc1ccccc12)Nc1ccccc1C(F)(F)F,103,1.4,3,nt,nt,i,0.94
COC(=O)c1c(CSc2ccc(Cl)cc2)noc1C(=O)NCc1ccco1,100,-1.5,3,nt,nt,i,0.92
OCCNc1ncnc2c1sc1nc(N3CCOCC3)c3c(c12)CCC3,104,nt,0,9,152,i,0.89
Cc1nn(-c2ccc(F)cc2)c(C)c1CN1CCN(CCc2ccccc2)C(CCO)C1 (stereo not given),94,nt,-2,nt,nt,i,1.1
CCOC(=O)CCNC(=O)Nc1ccc2nc(C)n(Cc3cccc(Cl)c3)c(=O)c2c1,117,-1.1,-16,-15,72,i,0.89
NC(=O)c1c(NC(=S)Nc2ccc(F)cc2)sc2c1CCCC2,124,nt,3,33,108,i,1
COc1ccccc1C(=O)Nc1cc2ccccc2oc1=O,99,-3.2,5,17,112,i,0.96
CCn1c(=O)c(C(=O)CN2CCN(S(=O)(=O)c3cc(C)ccc3C)CC2)c(N)n(Cc2ccccc2)c1=O,100,-0.7,5,-37,70,i,0.76
CC1CCc2c(nc3ncnn3c2N2CCN(c3ccccc3)CC2)C1 (stereo not given),104,-2.4,-7,nt,nt,i,0.76
Cc1cccc(-n2cnc3cc(C(=O)N4CCCCC4)ccc32)c1,96,-1.0,-10,nt,nt,i,0.99
CC(C)CN1C(=O)C(=O)N(CC(=O)NCc2ccc3c(c2)OCO3)C1=O,95,-1.5,3,41,133,nt,nt
O=C(N/C(=C\c1ccc2c(c1)OCO2)C(=O)N1CCOCC1)c1cccs1,105,-3.5,-9,4,110,i,0.89
COc1ccc2[nH]c(C)c(CCN(Cc3cccs3)C(=S)Nc3ccccc3)c2c1,101,-2.2,2,nt,nt,i,1.1
CC1CC(C)CN(C(=O)c2ccccc2Nc2ccc(SC(F)F)cc2)C1 (stereo not given),98,-1.9,7,33,106,i,1.2
Cc1ccccc1C(=O)Nc1ccc(C(=O)N/N=C/c2ccc(F)cc2)cc1,37,nt,5,-8,34,i,1
Cn1cc(/C=N/NC(=O)c2ccc(C#N)cc2F)c2ccccc21,97,nt,6,nt,nt,i,0.85
CCOC(=O)c1c(N)sc(C(=O)N(CC)CC)c1C,95,nt,-2,nt,nt,i,0.93
Cc1ccc(C2CC(c3ccccc3)n3ncnc3N2)cc1 (stereo not given),101,-0.4,-6,nt,nt,i,0.97
CC(C)CNC(=O)COc1ncnc2ccccc12,102,-2.1,0,11,109,i,1
CC(OC(=O)c1cc(=O)[nH]c2ccccc12)c1ccccc1 (stereo not given),97,-3.5,-6,-32,74,i,0.85
O=C(CN1CCOCC1)N/N=C/c1ccco1,104,nt,-4,nt,nt,i,0.99
O=C1c2ccccc2C(=O)N1Cc1nc2ccccc2c(=O)n1CCN1CCOCC1,nt,-2.7,-14,66,116,i,0.99
COc1ccc2c(c1)C(C)=CC(C)(C)N2S(=O)(=O)c1ccc(Br)cc1,96,nt,0,nt,nt,i,0.78
CC(=O)N1N=C(c2ccccc2)OC12CCCC2,112,nt,-2,-27,121,i,0.98
Cc1ccc(-c2cc(C(=O)NCC3CCCO3)no2)cc1 (stereo not given),94,-3.6,-5,-9,155,i,0.92
COc1ccccc1C(=O)NCCc1c(C)[nH]c2c(C)ccc(F)c12,101,nt,-3,nt,nt,i,1.1
CCOc1ccc2nc(/N=C/c3c(C)[nH]n(-c4ccc(C)cc4)c3=O)sc2c1,64,-1.7,-12,20,89,i,0.88
Cc1cc(C)nc(SC2=CS(=O)(=O)c3ccccc32)n1,103,-2.3,0,6,203,i,0.61
COC(=O)C1=C(C)NC2=C(C(=O)CCC2)C1c1coc2ccccc2c1=O (stereo not given),102,-0.4,2,nt,nt,i,0.95
COCCNC(=O)/C(C#N)=C/c1ccc(O)c([N+](=O)[O-])c1,107,nt,-5,nt,nt,i,0.99
O=C(/C=C(\c1ccccc1)n1cncn1)c1ccccc1,62,-1.9,-9,0,93,i,0.92
CN1CCN(C(=O)/C=C/c2cn(-c3ccccc3)nc2-c2ccc3c(c2)OCCO3)CC1,105,nt,-3,nt,nt,i,0.85
O=C(CNC1CCCCC1)N1CCc2ccccc2C1,100,-0.6,-1,46,103,i,1.1
CCOc1cc(C(=S)N2CCOCC2)ccc1OS(=O)(=O)c1ccc(NC(C)=O)cc1,96,-2.3,12,nt,nt,i,0.7
Cc1cc(C(=O)O)c(C)n1-c1ccccc1,97,-3.0,-2,-5,167,i,1
CN(C)c1ccc(S(=O)(=O)NCC(=O)OCC(=O)Nc2cc(Cl)cc(Cl)c2)cc1[N+](=O)[O-],103,-0.8,-5,9,120,i,0.87
CCN(CC)C(=O)CN(C#N)c1nc(OC)nc(N(C)C)n1,111,-0.9,0,-39,54,i,0.91
Cc1ccc(-c2cc(=O)c3cc(F)ccc3[nH]2)cc1,105,-2.4,-16,38,113,i,0.95
COc1cccc(C(CC(=O)NCC2CCCO2)NS(=O)(=O)c2ccc(C)cc2)c1OC (stereo not given),105,-0.7,-19,nt,nt,i,0.93
CC1CCCC(C)N1CCNC(=O)Cn1nc(-c2ccccc2)ccc1=O (stereo not given),106,-1.1,-2,nt,nt,i,0.98
COc1ccc(C(=O)/C=C/c2ccc(OC)c(Cn3nnc4ccccc43)c2)cc1,106,-1.5,3,8,97,i,0.72
O=C(NNC(=O)C1CCN(S(=O)(=O)c2cccc(C(F)(F)F)c2)CC1)C1CC1,95,nt,-8,nt,nt,i,1
Cn1c(=O)c2c(nc(Sc3ncccn3)n2Cc2ccccc2Cl)n(C)c1=O,100,-0.4,-8,-7,116,i,0.85
O=C(Cc1cccs1)Nc1ccc2c(c1)C(=O)OC2,100,-1.6,-4,25,77,i,0.68
COc1ccc(CCNC(=O)CO/N=C/c2cc3c(cc2Br)OCO3)cc1OC,99,nt,-11,-160,62,i,0.97
Cc1ccc(CS(=O)(=O)CCC(=O)NCCC2=CCCCC2)cc1,102,nt,-8,0,121,i,1
